ClpP mod = qHTS Assay for Activators of ClpP. ATP-dependent Clp protease proteolytic subunit (Bacillus subtilis (strain 168)), P80244. AID 651965, 2013. Potency, µM (highest dose often 57.5 µM), for inactives: at the highest dose activity change, negative = active. 1.9% of 340,000 active. purified B. subtilis ClpP, FRET peptide cleavage, 20 min; active = well fitted falling curve with a large enough effect; inconclusive = small, poorly fitted or top-dose-only effect; inactive = no such curve, though single readings can be large or run the other way; further: the source files actives as falling curves though it sought activators and does not explain the sign; nearly all actives have a fitted effect of over 65% in size; many hits overshoot -100%
Target sequence (P80244 whole entry, looked up): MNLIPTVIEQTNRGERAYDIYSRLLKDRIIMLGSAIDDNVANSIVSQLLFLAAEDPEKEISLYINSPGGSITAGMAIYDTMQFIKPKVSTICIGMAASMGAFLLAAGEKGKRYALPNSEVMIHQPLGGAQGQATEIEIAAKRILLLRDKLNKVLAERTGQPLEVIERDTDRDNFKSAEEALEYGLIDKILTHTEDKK
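Purified B. subtilis ClpP, 10 microg/mL final in Tris/HCl pH8 with KCl, BSA, glycerol and Tween-20, cleaved an Abz/nitrotyrosine-quenched decapeptide. Fluorescence (ex 320, em 430) was read at 0 and 20 min at room temperature. Delta was normalized to 5.8 microM ADEP and DMSO/no-enzyme controls.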
PINK1 modulator = PINK1 expression modulation | PINK1 immunofluorescence, high-content cytometry, 24 h | Potency, µM (series often up to 76.6 µM), without a hit: at the top dose activation (PINK1 increase), actives largely listed as activators | 0.2% of 410,000 active | AID 624263; active = well fitted activation curve with a large enough effect; inconclusive = small, poorly fitted or top-dose-only effect; inactive = flat fitted curve, though single readings scatter; cell line not stated here;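 further: % of control where 0% means no effect; nearly all actives have a fitted effect of over 65% in size; a mitochondrial uncoupler was the plate control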
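Measures PINK1 amount and localization on or inside mitochondria by immunofluorescence. Stable cells get compounds at 5 concentrations for 24 hours before fixation and staining; CCCP controls included.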
The depositor's hits bear a star; ? = inconclusive. Potency means the concentration at half of the fitted maximal effect. Only part of the results is shown; count on the stated rates, not on these rows.

SMILES | ClpP mod | PINK1 modulator
CCCc1ccc(OCC(=O)Nc2sc3c(c2C(=O)OCC)CCC(C(C)(C)C)C3)cc1 (stereo not given) | -3.2% | -1.9%
Cc1ccc(-c2nnc(Nc3ccc(O)cc3)c3ccccc23)cc1S(=O)(=O)NC(C)(C)CO | -3.3% | 3.9%
COc1ccc(S(=O)(=O)c2c(O)c3ccc(C(=O)NCc4ccc(F)cc4)cc3[nH]c2=O)cc1 | ? | 0.5%
CCCCCn1cc2c(c1-c1ccccc1Br)c(=O)n(C)c(=O)n2C | -2.6% | 0.3%
Cc1ccc(-n2c(SCC(=O)Nc3ccc4c(c3)OCO4)nc3c([nH]c4ccccc43)c2=O)cc1 | ? | -1.5%
Cc1cc(O)c(C(c2ccccc2Cl)N2CCN(c3ccccc3)CC2)c(=O)n1Cc1ccco1 (stereo not given) | 0.6% | 0.1%
CCCOc1ccc(C(=O)N(Cc2ccco2)Cc2ccco2)cc1 | 1.3% | -0.4%
CCCCNC(=O)CCCn1c(=O)c2ccccc2n(Cc2c(C)cc(C)cc2C)c1=O | -4.4% | -1.1%
CCCOc1ccc(C(=O)Nc2ccc3oc(-c4ccncc4)nc3c2)cc1 | -20% | -0.3%
FC(F)(F)c1cccc(N2CCN(c3nc4ccccc4n4cnnc34)CC2)c1 | ? | 14%
CCOC(=O)c1c(C)oc2ncnc(N3CCN(c4ccccc4)CC3)c12 | -1.0% | 1.6%
C=C1NN(CC2CC2)C(=O)N1c1ccc(OCc2ccccc2)cc1 | -0.8% | 0.6%
FC(F)(F)c1ccccc1Cc1c(-c2ccc(Cl)cc2)nc2c3ccccc3ccn12 | -19% | 0.8%
CCN1CCOC(=O)C1CC(=O)Nc1cc(C)ccc1OC (stereo not given) | 2.2% | -1.5%
Cc1ccc(Sc2ccc(N3CCCC(C(=O)Nc4ccc(Br)cc4)C3)nn2)cc1 (stereo not given) | ? | -0.3%
Cc1ccc2nc(Cl)c3cc(C(=O)NC4CCCCCC4)sc3c2c1 | -8.1% | 0.0%
COc1ccc(CNC(=O)Cn2c(-c3ccccc3)cc(C(C)=O)c2C)cc1OC | 3.1% | -0.9%
Cc1ccc(Cn2c(C(=O)O)c(CNCCc3ccco3)c3ccc(C)cc32)cc1 | -11% | 0.2%
O=S(=O)(c1ccc(-c2cc(C(F)(F)F)on2)s1)N1CCN(c2ccc(F)cc2)CC1 | -1.1% | -0.1%
O=C(C[n+]1cccc(Cl)c1)c1ccc(O)c(O)c1 | 0.4% | 1.1%

Full records from above. Screens in order: ClpP mod | PINK1 modulator
Cc1cc(O)c(C(c2ccccc2Cl)N2CCN(c3ccccc3)CC2)c(=O)n1Cc1ccco1 (stereo not given) is entered as 0.6% | 0.1%
COc1ccc(CNC(=O)Cn2c(-c3ccccc3)cc(C(C)=O)c2C)cc1OC is entered as 3.1% | -0.9%
O=S(=O)(c1ccc(-c2cc(C(F)(F)F)on2)s1)N1CCN(c2ccc(F)cc2)CC1 is entered as -1.1% | -0.1%
CCCCCn1cc2c(c1-c1ccccc1Br)c(=O)n(C)c(=O)n2C is entered as -2.6% | 0.3%
O=C(C[n+]1cccc(Cl)c1)c1ccc(O)c(O)c1 is entered as 0.4% | 1.1%

The results go on:
SMILES | ClpP mod | PINK1 modulator
CC(C)(C)c1ccc(S(=O)(=O)N2CCC(c3ccncc3)CC2)cc1 | 0.3% | -1.1%
Cc1cc(C)cc(OCC(=O)Nc2nc3c(s2)CC(C(C)(C)C)CC3)c1 (stereo not given) | 1.5% | 3.1%
COc1ccc(CCNC(=O)Cc2c(C)c3cc4c(C(C)(C)C)coc4c(C)c3oc2=O)cc1 | -6.0% | 1.9%
CCOC(=O)c1ccc(NC(=O)CSc2nc(C)c(Cc3ccccc3)c(=O)[nH]2)cc1 | 2.2% | 0.0%
CCOc1ccc(CCNC(=O)CCCc2nnc3n(CCCOC)c(=O)c4sccc4n23)cc1 | -1.6% | 1.4%
Cc1cccc(N2CCN(S(=O)(=O)c3csc(C(N)=O)c3)CC2)c1C | -0.1% | 0.5%
COc1ccccc1-c1cc2nc(C)c(CCC(=O)NCCc3cccc(C)c3)c(C)n2n1 | 3.8% | 2.3%
CCC(Sc1nnc(-c2ccc(F)cc2)c(-c2ccc(F)cc2)n1)C(=O)NC1CCCC1 (stereo not given) | 0.5% | 0.9%
Cc1ccc(C)c(CNC(=O)CCn2cccn2)c1 | 1.0% | 0.8%
CCOC(=O)N1CCc2c(sc3c2C(=O)NC(c2ccc(C(=O)OC)cc2)N3)C1 (stereo not given) | -1.3% | 0.2%
CCOc1ccc(NC(=O)c2cc(C)nc3c2c(C)nn3-c2ccc(C)cc2)cc1 | 2.5% | 0.3%
CN(C)c1ccc(N=Cc2cccc3ccccc23)cc1 | -5.6% | -0.1%
Cc1cc(Cl)ccc1OCC(=O)Nc1c(C(=O)c2ccccc2)oc2ccccc12 | -4.5% | 1.0%
Cc1cccc(C)c1NC(=O)c1nc(S(=O)(=O)Cc2ccccc2F)ncc1Cl | -0.6% | 1.5%
O=C(c1ccc(Nc2nc3ccccc3n3nnnc23)cc1)N1CCN(c2ccc(F)cc2)CC1 | -9.4% | 1.1%
O=C1CCCC[C@@H](CO)[C@H](O)C[C@H](c2ccccc2)O1 | 2.2% | 0.8%
COc1ccc(S(=O)(=O)c2cc3cc(OC)ccc3oc2=O)cc1 | -7.5% | 0.0%
Nc1nc(N)c(S(=O)(=O)c2ccccc2)c(Nc2ccccc2)n1 | -0.7% | 0.5%
COc1ccc(CNC(=O)C2CCC(CNS(=O)(=O)c3ccc4c(c3)CCCC(=O)N4)CC2)cc1 (stereo not given) | 0.0% | -0.5%
CCOC(=O)C1=C(CS(=O)(=O)c2ccc(F)cc2)NC(=O)NC1c1ccc(OCC)c(OC)c1 (stereo not given) | -12% | 0.8%
O=C(Cn1c(=O)nc(-c2ccccc2)c2cc(Cl)ccc21)NCc1ccccc1 | -15% | 1.8%
CCCCc1ccc(NS(=O)(=O)c2ccc(N3CCCCS3(=O)=O)cc2)cc1 | 0.1% | 0.3%
COCCCNC(=O)c1ccc(-c2nc(CS(=O)(=O)c3ccc(C)cc3)c(C)o2)cc1 | 4.1% | 10%
COc1ccccc1CNC(=O)C1CCN(C2=NS(=O)(=O)C(c3ccc(C)c(C)c3)=C2C)CC1 | -0.2% | 7.2%
COc1ccc2c(c1)c1c(c(=O)n(-c3ccc(C)cc3)c(=O)n1CC(=O)NCc1ccc(C)cc1)n2C | ? | -1.1%
O=C(NC1CCCCCC1)C1CCN(C(=O)N2CCOc3ccc(Cl)cc32)CC1 | -0.5% | -0.7%
CCCCS(=O)(=O)CC(O)CSc1nc(-c2ccc(C)cc2)cc(-c2ccccc2)c1C#N (stereo not given) | 3.5µM* | 1.6%
Cc1ccc(Cl)cc1NC(=O)c1sc2nc(-c3ccccc3)cn2c1C | 0.0% | 1.3%
Cc1ccc(NC(=O)Nc2csc3c2CCCC3)c(C)c1 | 2.1% | 2.6%
COCCCNC(=O)C1CCN(C(=O)c2ccc(-n3ccc4ccccc43)s2)CC1 | -0.2% | 1.2%
CCC(=O)N1CCc2cc(S(=O)(=O)NC(C(=O)NCCc3cccc(C)c3)C(C)C)ccc21 (stereo not given) | 2.2% | 1.2%
Cn1c(=O)n(C)c2cc(NS(=O)(=O)c3ccc(Br)cc3)c(NCc3ccccc3)cc21 | 4.2% | 2.9%
Cc1ccc(Cn2cc(CN3CC(N4CCN(Cc5cccc(C)c5)CC4)CS3(=O)=O)nn2)cc1 (stereo not given) | 0.2% | 9.2%
CCOC(=O)CSc1nc(-c2ccc(Cl)cc2)cc(C(F)(F)F)c1C#N | -6.6% | 0.6%
CC(C)OCCCNC(=O)C(=O)Nc1c2c(nn1-c1ccccc1)CS(=O)(=O)C2 | 1.2% | 1.4%
Cc1ccccc1-c1nc(C(N)=O)c2c(n1)n(-c1ccc3c(c1)OCO3)c(=O)n2C | 12% | 1.2%
COCCCNC(=O)CC(c1cc(OC)c(OC)c(OC)c1)N1Cc2ccccc2C1=O (stereo not given) | -0.1% | ?
CCOc1ccc(CC(=O)NCCS(=O)(=O)N2CCN(c3ccc(OC)cc3)CC2)cc1 | 1.1% | -0.3%
COc1ccc(NC(=O)Cn2c(=O)n(CCCC(=O)NCc3ccccc3OC)c(=O)c3ccccc32)cc1Cl | 0.6% | 7.7%
Cc1ccc(-c2c(CN3CCN(c4cccc(C)c4C)CC3)csc2C)cc1 | -0.7% | 4.3%
Cc1ccc2[nH]c(=O)c(CN(CCCO)Cc3nnnn3Cc3ccco3)cc2c1 | -17% | 0.3%
COc1cc(NC(=O)N2CCC(CN3CCCCCC3)CC2)cc(OC)c1OC | 1.4% | 0.4%
CCC1CN(S(=O)(=O)c2cc(-c3cc(C)no3)ccc2C)c2cc(C)ccc2O1 (stereo not given) | -0.7% | 6.2%
COc1ccc(NC(=O)C2CCCN(C(=O)c3cnn(-c4ccc(F)cc4)c3-n3cccc3)C2)cc1 (stereo not given) | 0.8% | 3.8%
Cc1ccc(-c2c(C(=O)N3CCN(c4cc(Cl)ccc4C)CC3)oc(=O)c3ccccc23)cc1 | -3.1% | 0.7%
O=C(CCn1cnc2onc(-c3ccc(F)cc3)c2c1=O)N1CCN(c2ccccc2)CC1 | -1.5% | 2.3%
CCOc1ccc(C(=O)Nc2ccc3nc(SCC(=O)N4CCCC4)sc3c2)cc1 | -4.4% | 1.3%
Cc1ccc(-c2cc(C(=O)NCc3ccccc3Cl)c3ccccc3n2)cc1C | 4.5µM* | 0.6%
CCOc1ccccc1NC(=O)c1c(NCc2cccs2)sc2c1CCC(C)C2 (stereo not given) | 1.7% | -0.9%
CCCc1nnc(N2C(=O)c3oc4ccc(F)cc4c(=O)c3C2c2ccc(C(=O)OC)cc2)s1 (stereo not given) | 0.0% | 1.2%
CCCN(CCC)C(=O)Cn1c(SCc2cccc(C(F)(F)F)c2)nc2cccnc21 | 4.8% | 0.0%
COc1cccc(NC(=O)Cn2nc3c4ccccc4n(Cc4cccc(F)c4)cc-3c2=O)c1 | -0.9% | 8.1%
Cc1ccc(-n2nc(C)c(C(=O)NCCCN3CCN(c4ccccc4F)CC3)c2-n2cccc2)cc1 | 2.0% | 2.3%
CCc1ccccc1NC(=O)N1CCC(CN2CCc3ccccc3C2)CC1 | -2.2% | 4.0%
COCCNC(=O)Cn1c(-c2cccs2)cc2cc(Cl)ccc21 | 28µM* | -0.9%
COc1ccc(NC(=O)NCCc2c(C)nn(C)c2C)c(OC)c1 | 0.9% | -1.1%
COc1cc(C(=O)NCC(c2cccs2)S(=O)(=O)c2ccc(F)cc2)cc(OC)c1OC (stereo not given) | -1.3% | 0.2%
CCn1c(=O)cc(SCC(=O)NCCc2ccc(Cl)cc2)c2ccccc21 | -14% | 1.5%
CCc1ccccc1Nc1ncnc2c1cnn2-c1ccc(C)cc1C | -7.4% | -0.1%
CCOCCc1nn2c(=O)cc(COC(=O)c3ccco3)nc2s1 | -5.0% | -1.2%

In the list so far, these have bromine.
SMILES | ClpP mod | PINK1 modulator
CCCCCn1cc2c(c1-c1ccccc1Br)c(=O)n(C)c(=O)n2C | -2.6% | 0.3%
Cc1ccc(Sc2ccc(N3CCCC(C(=O)Nc4ccc(Br)cc4)C3)nn2)cc1 (stereo not given) | ? | -0.3%
Cn1c(=O)n(C)c2cc(NS(=O)(=O)c3ccc(Br)cc3)c(NCc3ccccc3)cc21 | 4.2% | 2.9%

Next part:
SMILES | ClpP mod | PINK1 modulator
CC(C(=O)Nc1ccc(F)c(Cl)c1)N1Cc2ccccc2C1=O (stereo not given) | 1.5% | 0.7%
Cc1ccc(C)c(CN2C(=O)c3ccccc3S(=O)c3ccc(C(=O)N4CCN(c5cccc(Cl)c5)CC4)cc32)c1 (stereo not given) | -0.9% | 1.4%
COc1ccc(NC(=O)Cn2cc(S(=O)(=O)N3CCN(c4ccccc4F)CC3)c3ccccc3c2=O)cc1Cl | -20% | 0.7%
O=S1(=O)CC(N2CCCCC2)CN1Cc1cn(Cc2ccccc2)nn1 (stereo not given) | -3.5% | -0.3%
Cc1ccc(Cl)cc1N1CCN(C(=O)CCS(=O)(=O)c2ccc3c(c2)oc(=O)n3C)CC1 | -1.1% | 3.1%
Cc1cccc(CCNC(=O)CCc2c(C)nc3c4c(C)cc(C)nc4nn3c2C)c1 | ? | 0.4%
COc1cccc(-c2nnc(SCC(=O)NC3CCCCC3)o2)c1 | -3.9% | -1.9%
Cc1ccccc1CCNC(=O)c1ccc2c(c1)c(C)c(C)n2Cc1ccccc1 | 32µM* | -1.6%
O=C(CS(=O)(=O)c1cccc2nsnc12)Nc1ccccc1Cl | 0.9% | -5.5%
COc1ccc2c(c1)c1c(c(=O)n(-c3ccccc3)c(=O)n1CC(=O)NCc1ccc(C)cc1)n2C | ? | 1.9%
COc1cccc(CNC(=O)CSc2ccc(-c3sc(-c4ccccc4)nc3C)nn2)c1 | ? | 0.9%
Cc1ccc(NS(=O)(=O)c2ccc3nc(-c4ccccc4)[nH]c3c2)c(Cl)c1 | -1.6% | 1.2%

Source: PubChem
